Polio RdRp inh: poliovirus RdRp elongation inhibitors, primary screen, biochemical, fluorescence polarization, total intensity; Genome polyprotein (Poliovirus type 1 (strain Mahoney)), P03300; poliovirus polymerase elongation; hits give low values; % elongation, % (compound at 16.7 µg/mL); actives 0.66% (n = 150,000); AID 588519, 2011; in the data active = % elongation below about 90%; note: some results filed as inactive read as strong as hits
Target sequence (P03300 1749-2209 limits assumed): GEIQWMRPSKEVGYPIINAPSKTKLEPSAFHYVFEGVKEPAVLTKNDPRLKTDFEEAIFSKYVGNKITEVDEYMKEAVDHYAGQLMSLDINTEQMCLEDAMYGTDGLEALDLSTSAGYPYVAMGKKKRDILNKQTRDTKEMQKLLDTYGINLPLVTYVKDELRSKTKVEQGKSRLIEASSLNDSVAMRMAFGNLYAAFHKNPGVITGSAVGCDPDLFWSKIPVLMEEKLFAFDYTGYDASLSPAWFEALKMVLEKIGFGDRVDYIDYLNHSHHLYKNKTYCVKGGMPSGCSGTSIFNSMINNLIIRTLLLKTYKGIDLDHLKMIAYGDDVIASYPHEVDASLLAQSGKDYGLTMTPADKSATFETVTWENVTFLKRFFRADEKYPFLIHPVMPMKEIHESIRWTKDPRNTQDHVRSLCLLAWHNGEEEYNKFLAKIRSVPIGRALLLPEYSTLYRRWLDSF
Polio RdRp inh intensity: also measured in Polio RdRp inh; calls as there; % elongation; measured here: total intensity read-out; formula for this scale not given here;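 total fluorescence in place of polarization; lower means less elongation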
Active calls of the source: *.

| # | smiles | Polio RdRp inh | Polio RdRp inh intensity |
| --- | --- | --- | --- |
| 1 | Cn1c(=O)c2cc(C(=O)NCCCN3CCN(c4ccc(F)cc4)CC3)sc2c2ccccc21 | 103.0 | 105.0 |
| 2 | CCN(C(=O)Cn1c(SCc2ccccc2F)nc2cccnc21)c1ccccc1 | 100.0 | 106.0 |
| 3 | Cn1cc(C(=O)N2CCN(c3cccc(Cl)c3)CC2)c(=O)c2cc(S(=O)(=O)N3CCCC3)ccc21 | 99.0 | 97.0 |
| 4 | Cc1cc(-c2ccc(S(=O)(=O)Nc3ccccc3C)cc2)on1 | 106.0 | 111.0 |
| 5 | CCCCNC(=O)C1=CC(c2ccc3c(c2)OCO3)=NS(=O)(=O)N1C | 112.0 | 116.0 |
| 6 | CCOC(=O)c1cc(-c2ccccc2)n(CCC(=O)Nc2ccc(C(F)(F)F)cc2)c1C | 109.0 | 99.0 |
| 7 | Cc1nn(C)c2c1c(C(F)(F)F)cc(=O)n2CC(=O)N1CCN(c2ccccc2F)CC1 | 108.0 | 104.0 |
| 8 | CCOc1ccc2nc(N(Cc3cccnc3)C(=O)c3ccc4c(c3)OCCO4)sc2c1 | 107.0 | 112.0 |
| 9 | CC(C)c1ccc(C2NC(=O)c3n[nH]c(-c4cccs4)c32)cc1 (stereo not given) | 106.0 | 107.0 |
| 10 | CCC12CN3CC(CC)(CN(C1)C3c1ccccn1)C2=O (stereo not given) | 111.0 | 112.0 |
| 11 | O=C(COc1ccc(F)cc1)NCc1ccc2c(c1)CCN2C(=O)c1ccccc1 | 107.0 | 112.0 |
| 12 | Cn1nnc2c(N3CCCCC3)ncnc21 | 103.0 | 110.0 |
| 13 | CN1C(=O)c2[nH]nc(-c3ccc(F)cc3)c2C1c1ccccn1 (stereo not given) | 113.0 | 112.0 |
| 14 | Cc1c(-c2nsc(NC(=O)c3cccs3)n2)nnn1-c1ccc(Cl)cc1 | 101.0 | 104.0 |
| 15 | Cc1ccc(NC(=O)C2CCCN(c3cnccn3)C2)cc1Cl (stereo not given) | 110.0 | 110.0 |
| 16 | COc1ccc(CCNC(=O)C2CCCN(S(=O)(=O)c3ccc4c(c3)oc(=O)n4C)C2)cc1OC (stereo not given) | 105.0 | 105.0 |
| 17 | COc1ccccc1NC(=O)c1oc2ccccc2c1NC(=O)c1cccc(OC)c1OC | 105.0 | 108.0 |
| 18 | O=C(NCCCc1nc2ccccc2n1Cc1ccc(Cl)cc1)C1CCCCC1 | 105.0 | 110.0 |
| 19 | CCCCNC(=O)c1ccc2c(c1)N(CC)C(=O)c1ccccc1S2 | 105.0 | 106.0 |
| 20 | CCCCCNC(=O)C1CCC(Cn2c(=O)c3sccc3n(CC(=O)N3CCCC3)c2=O)CC1 (stereo not given) | 104.0 | 109.0 |

2 records drawn at random from the list so far, as already listed:
| # | smiles | Polio RdRp inh | Polio RdRp inh intensity |
| --- | --- | --- | --- |
| 17 | COc1ccccc1NC(=O)c1oc2ccccc2c1NC(=O)c1cccc(OC)c1OC | 105.0 | 108.0 |
| 9 | CC(C)c1ccc(C2NC(=O)c3n[nH]c(-c4cccs4)c32)cc1 (stereo not given) | 106.0 | 107.0 |

Remaining list, next part.
| # | smiles | Polio RdRp inh | Polio RdRp inh intensity |
| --- | --- | --- | --- |
| 21 | CCCNC(=O)C1CCC(CNS(=O)(=O)c2ccc3c(c2)CC(C)N3C(C)=O)CC1 (stereo not given) | 113.0 | 108.0 |
| 22 | O=C(Nc1ccc(F)cc1)Nc1ccc2snnc2c1 | 103.0 | 102.0 |
| 23 | CC(=O)N1CCc2cc(Br)cc(S(=O)(=O)N3CCC(C)CC3)c21 | 107.0 | 108.0 |
| 24 | O=C1CC(c2c(F)cccc2Cl)c2c(ccc3ccccc23)N1 (stereo not given) | 111.0 | 112.0 |
| 25 | COc1ccc(-c2c(C)c3ccc(O)c(CN4CCOCC4)c3oc2=O)cc1OC | 104.0 | 95.0 |
| 26 | O=C(O)c1ccc(Cn2c(SCc3ccc(F)cc3)nc3ccncc32)cc1 | 107.0 | 106.0 |
| 27 | Cc1cccc(N2CCN(C(=O)c3cnn(-c4ccccc4)c3C3CCN(C(=O)OC(C)(C)C)CC3)CC2)c1C | 101.0 | 105.0 |
| 28 | O=c1c(-c2cc(-c3ccccc3)nc3c2COc2ccccc2-3)coc2ccc(Cl)cc12 | 104.0 | 106.0 |
| 29 | O=C(NCCc1csc(-c2ccc(F)cc2)n1)c1ccc(Br)o1 | 97.0 | 92.0 |
| 30 | Cc1c(C(=O)Nc2ccccc2Cl)oc2ccc(S(=O)(=O)N3CCCCCC3)cc12 | 108.0 | 112.0 |
| 31 | COc1ccc(NC(=O)CN(C)S(=O)(=O)c2ccc3[nH]c4c(c3c2)CCCC4)cc1Cl | 101.0 | 107.0 |
| 32 | Cc1oc2c(c1C(=O)Nc1cccc(Br)c1)C1=NCCN1C=N2 | 103.0 | 110.0 |
| 33 | CCOC(=O)c1ccc(N2C(=O)c3n[nH]c(-c4cccs4)c3C2c2cccc(O)c2)cc1 (stereo not given) | 104.0 | 104.0 |
| 34 | CCCn1cc(S(=O)(=O)c2ccc(CC)cc2)c(=O)c2cc(F)c(N3CCN(C)CC3)cc21 | 113.0 | 108.0 |
| 35 | CCc1ccc(-c2nc(CN3CCC(C(=O)NCCc4ccc(Cl)cc4)CC3)c(C)o2)cc1 | 112.0 | 113.0 |
| 36 | O=C(CCn1c(=O)c2cccn2c2ccc(F)cc21)NCCc1ccc(Cl)cc1 | 106.0 | 110.0 |
| 37 | COc1ccc(OC)c(NC(=O)CC(=O)Nc2ccc3nc4n(c(=O)c3c2)CCCCC4)c1 | 110.0 | 111.0 |
| 38 | O=C1CN(C(=O)COc2ccc(Cl)cc2)C(c2ccc(F)cc2)c2cc(Cl)ccc2N1 (stereo not given) | 106.0 | 110.0 |
| 39 | COCCn1c(SCC(=O)Nc2ccc(Br)cc2)nc2c([nH]c3ccccc32)c1=O | 113.0 | 113.0 |
| 40 | Cc1cc(C)n(-c2nc3ccccc3nc2Nc2ccc(N(C)C)cc2)n1 | 112.0 | 109.0 |

Looked up above.
O=C(CCn1c(=O)c2cccn2c2ccc(F)cc21)NCCc1ccc(Cl)cc1 – Polio RdRp inh: 106.0
CCc1ccc(-c2nc(CN3CCC(C(=O)NCCc4ccc(Cl)cc4)CC3)c(C)o2)cc1 – Polio RdRp inh: 112.0

(further entries)
| # | smiles | Polio RdRp inh | Polio RdRp inh intensity |
| --- | --- | --- | --- |
| 41 | Cc1ccc(S(=O)(=O)N2CCc3cc(C(=O)N(C)Cc4ccccc4)ccc32)cc1 | 110.0 | 115.0 |
| 42 | COc1cccc(CNC(=O)Cn2ncc3c(=O)oc4ccccc4c32)c1 | 105.0 | 101.0 |
| 43 | CCn1c2ccccc2c2cc(CN3CCN(Cc4ccccc4F)CC3)ccc21 | 100.0 | 96.0 |
| 44 | CCOc1ccccc1NC(=O)Cn1c(=O)n(Cc2ccccc2)c(=O)c2c(C)c(C)sc21 | 103.0 | 109.0 |
| 45 | CCOCCSc1c(C)cnc2c1c(=O)n(C)c(=O)n2C | 107.0 | 106.0 |
| 46 | COc1ccc(-c2noc(-c3ccc(NCc4cccnc4)c([N+](=O)[O-])c3)n2)cc1OC | 112.0 | 108.0 |
| 47 | Cc1ccc(C)c(N2CCN(c3nc4ccccc4n4c(C)nnc34)CC2)c1 | 109.0 | 113.0 |
| 48 | CCC(=O)N1c2ccccc2CC1C(=O)N1CCN(c2cccc(OC)c2)CC1 (stereo not given) | 106.0 | 106.0 |
| 49 | CC1=C(C(=O)Nc2cccnc2)C(c2ccccc2)n2nc(-c3ccc(O)cc3)nc2N1 (stereo not given) | 106.0 | 107.0 |
| 50 | COc1ccccc1CNC(=O)CN1C(=O)CSc2ccc(S(=O)(=O)N3CCCC3)cc21 | 110.0 | 91.0 |
| 51 | COc1ccc(C(=O)c2oc3ccccc3c2NC(=O)COc2cccc(C)c2)cc1 | 104.0 | 99.0 |
| 52 | COc1ccc(-c2nc(C)c(CCNC(=O)c3cccs3)s2)cc1OC | 106.0 | 103.0 |
| 53 | Cc1ccccc1CNC(=O)c1ccc(-c2nc(CS(=O)(=O)c3ccccc3)c(C)o2)cc1 | 108.0 | 111.0 |
| 54 | Cc1ccc2oc(-c3cc(NC(=O)CC(C)C)ccc3Cl)nc2c1 | 103.0 | 99.0 |
| 55 | CCc1nnc(NC(=O)c2nc(S(C)(=O)=O)ncc2Cl)s1 | 110.0 | 107.0 |
| 56 | Cc1cccc(OCC(=O)NCc2ccc3c(c2)CCN3C(=O)c2ccccc2)c1 | 102.0 | 106.0 |
| 57 | CCC(=O)N1CCc2cc(CNS(=O)(=O)c3ccc(CC(C)C)cc3)ccc21 | 111.0 | 112.0 |
| 58 | COc1cccc(C(=O)c2cn(CC(=O)Nc3cc(Cl)c(OC)cc3OC)c3nc(C)ccc3c2=O)c1 | 107.0 | 101.0 |
| 59 | CN1CCc2nc3sc(C(=O)c4ccc(F)cc4)c(N)c3cc2C1 | 109.0 | 135.0 |
| 60 | COc1ccc(NC(=O)CSc2nnc(NC(=O)Nc3ccc(OC)cc3)s2)cc1 | 104.0 | 107.0 |
| 61 | COc1cccc(CNC(=O)CSc2nnc(C)c3c(C)n(-c4ccccc4)nc23)c1OC | 106.0 | 111.0 |
| 62 | CN(C)CCNc1ncnc2c1cnn2-c1cccc(Cl)c1 | 104.0 | 112.0 |
| 63 | CCc1ccc(NS(=O)(=O)c2c(C)nc3sc(CC)nn3c2=O)cc1 | 103.0 | 106.0 |
| 64 | Cc1nnc(NC(=O)c2cccn(Cc3ccccc3)c2=O)s1 | 111.0 | 111.0 |
| 65 | Cc1ccc2c(c1)c(=O)c(S(=O)(=O)c1ccc(F)cc1)cn2CC(=O)Nc1ccc2c(c1)OCO2 | 110.0 | 112.0 |
| 66 | Cn1nc(C(=O)NCc2ccccc2Cl)c2c1-c1ccccc1SC2 | 117.0 | 117.0 |
| 67 | COc1cccc2cc(-c3nnc(Nc4c(F)cccc4F)s3)c(=O)oc12 | 109.0 | 109.0 |
| 68 | COc1cc(NS(=O)(=O)c2ccc3[nH]c4c(c3c2)CCCC4)cc(OC)c1OC | 106.0 | 99.0 |
| 69 | COc1cc(NC(=O)NCCN2CCN(c3ccccc3)CC2)cc(OC)c1OC | 108.0 | 110.0 |
| 70 | O=C(CCS(=O)(=O)c1nc(-c2ccc3c(c2)OCO3)cc(C(F)(F)F)n1)Nc1ccccc1F | 104.0 | 108.0 |
| 71 | Cc1cccc(N(C)C(=O)CSc2nc3ncccc3o2)c1 | 111.0 | 106.0 |
| 72 | COc1ccc(-c2cc(C(F)(F)F)nc(SCC(=O)NCCc3ccc(OC)c(OC)c3)n2)cc1 | 106.0 | 109.0 |
| 73 | CCCSc1nnc2n(-c3cccc(C)c3)c(=O)c3c4c(sc3n12)CCCC4 | 104.0 | 107.0 |
| 74 | CCOC(=O)c1cc(-c2ccccc2)n(CC(=O)N(C)c2ccc(OC)cc2)c1C | 103.0 | 107.0 |
| 75 | COc1ccc(C2C=C(c3ccccc3)Nc3nc(NC(=O)/C=C/c4ccccc4)nn32)cc1 (stereo not given) | 107.0 | 115.0 |
| 76 | CCOC(=O)c1c(S(=O)(=O)N2CCC(C(=O)NCc3ccccc3Cl)CC2)c(C)n(C)c1C | 109.0 | 110.0 |
| 77 | O=C(Cn1cc(SCc2c(F)cccc2Cl)c2ccccc21)N1CCCCC1 | 121.0 | 117.0 |
| 78 | Cc1cc(C)c2c(CC(=O)Nc3ccc(S(=O)(=O)N4CCCCC4)cc3)coc2c1 | 124.0 | 120.0 |
| 79 | Cc1cc(C)cc(-n2ccn(CC(=O)Nc3cc(C)ccc3C)c(=O)c2=O)c1 | 114.0 | 114.0 |
| 80 | Cc1oc2ncnc(N3CCOCC3)c2c1C(=O)NCc1ccccc1 | 110.0 | 107.0 |

Entries of single compounds from above. Screens in order: Polio RdRp inh	Polio RdRp inh intensity
`CCCSc1nnc2n(-c3cccc(C)c3)c(=O)c3c4c(sc3n12)CCCC4` as listed: 104.0	107.0
`Cc1nnc(NC(=O)c2cccn(Cc3ccccc3)c2=O)s1` as listed: 111.0	111.0
`CCc1ccc(NS(=O)(=O)c2c(C)nc3sc(CC)nn3c2=O)cc1` as listed: 103.0	106.0
`COc1ccc(C2C=C(c3ccccc3)Nc3nc(NC(=O)/C=C/c4ccccc4)nn32)cc1` (stereo not given) as listed: 107.0	115.0
`O=C(Cn1cc(SCc2c(F)cccc2Cl)c2ccccc21)N1CCCCC1` as listed: 121.0	117.0

The main list resumes, starting two compounds before the break.
| # | smiles | Polio RdRp inh | Polio RdRp inh intensity |
| --- | --- | --- | --- |
| 79 | Cc1cc(C)cc(-n2ccn(CC(=O)Nc3cc(C)ccc3C)c(=O)c2=O)c1 | 114.0 | 114.0 |
| 80 | Cc1oc2ncnc(N3CCOCC3)c2c1C(=O)NCc1ccccc1 | 110.0 | 107.0 |
| 81 | COc1ccc(CN(C(=O)Nc2cc(C)ccc2C)C2CCN(C(C)=O)CC2)cc1 | 107.0 | 111.0 |
| 82 | CCC(C(=O)NCc1ccc(OC)c(OC)c1)n1nc(C)c2c(C)n(-c3ccc(C)cc3)nc2c1=O (stereo not given) | 110.0 | 114.0 |
| 83 | COC(=O)c1ccccc1NC(=O)CSc1nc2ccccc2nc1Cc1ccccc1OC | 110.0 | 99.0 |
| 84 | CCOC(=O)N1CCc2c(sc3c2C(=O)NC(c2cc(OC)c(O)c(OC)c2)N3)C1 (stereo not given) | 120.0 | 126.0 |

Screens deposited in PubChem BioAssay by ICCB-Longwood Screening Facility, Harvard Medical School.

A portion of the library. The share of hits here may be higher or lower than overall.
